High-throughput results as filed in PubChem BioAssay.
RE007 growth inh – less growth of the S. pombe RE007 Vpr strain | S. pombe RE007 Vpr strain, BacTiter-Glo ATP luminescence, 24 h; control for the full effect not named in the record | Potency, µM (series often up to 92.2 µM), for inactives: at the highest dose activity change, negative = less growth | 360,000 tested, 0.21% active | AID 651644; active = well fitted falling curve with a large enough effect; inconclusive = small, poorly fitted or top-dose-only effect; inactive = no such curve, though single readings can be large or run the other way;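 further: on the % scale 0 is the no-effect control and ±100 the full control effect; nearly all actives have a fitted effect of over 50% in size; the assay follows cell death caused by Vpr and the record does not say whether a fall means rescue or toxicity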
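Fission yeast strain RE007, carrying one chromosomally integrated HIV-1 vpr copy, was seeded at OD 0.01 in PMG+AL medium with 23 nL pinned compound. After 24 h at 30 °C and 99% humidity, viability was read by BacTiter-Glo luminescence.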
Cruzain inh noDet – blocks cruzain activity in detergent-free assay; P25779; purified cruzain, Z-FR-AMC fluorescence, no detergent; Potency, µM, for the others: max response, negative = inhibition, most hits filed as inhibitors; 200,000 tested, 2.3% active; AID 1476;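 further: plate controls were enzyme without inhibitor for no effect and buffer without enzyme for full effect; nearly all actives have a fitted effect of over 40% in size; top concentration of the series not given in the record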
Target sequence (P25779 123-467 limits assumed): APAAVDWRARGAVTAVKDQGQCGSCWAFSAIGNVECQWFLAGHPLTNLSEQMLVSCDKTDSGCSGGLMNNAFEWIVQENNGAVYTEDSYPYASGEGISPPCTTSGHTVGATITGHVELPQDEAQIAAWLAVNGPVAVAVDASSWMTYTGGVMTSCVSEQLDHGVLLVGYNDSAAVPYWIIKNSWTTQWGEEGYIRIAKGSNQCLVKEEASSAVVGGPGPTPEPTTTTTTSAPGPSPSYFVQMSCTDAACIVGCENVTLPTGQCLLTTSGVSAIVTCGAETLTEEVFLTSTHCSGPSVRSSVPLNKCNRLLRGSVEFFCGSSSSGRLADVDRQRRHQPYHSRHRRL
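Purified cruzain at 1.5 nM, pre-incubated 15 min with compound at room temperature in 100 mM sodium acetate pH 5.5, 5 mM DTT, 0.00005% Triton X-100. Reaction started with 2 uM Z-FR-AMC; AMC fluorescence increase over 60 s gives rate.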
Lassa entry inh – blocks Lassa virus binding to or entry into cells. Lassa virus pseudotype entry inhibition, cell reporter; control for the full effect not named in the record. Potency, µM (series often up to 37.9 µM), for inactives: at the highest dose activity change, negative = inhibition, hits mostly inhibitors. 300,000 tested, 1.2% active; active means well fitted inhibition curve with a large enough effect; inconclusive means small, poorly fitted or top-dose-only effect, or effect the other way; inactive means flat fitted curve, though single readings scatter; tested in HEK293 cells; further: on the % scale 0 is the no-effect control and ±100 the full control effect; nearly all actives have a fitted effect of over 50% in size; luciferase read-out
Marburg entry inh – inhibitors of Marburg virus binding or cell entry. Marburg virus pseudotyped entry inhibition, cell reporter; control for the full effect not named in the record; about a third of the inactives were read at about 46 µM. Potency, µM (series often up to 37.8 µM), for inactives: at the top dose activity change, negative = inhibition, most hits filed as inhibitors. 300,000 tested, 1.8% active; active = well fitted inhibition curve with a large enough effect; inconclusive = small, poorly fitted or top-dose-only effect, or effect the other way; inactive = flat fitted curve, though single readings scatter; tested in HEK293 cells; about a fifth of its hits are not listed in these tables; further: on the % scale 0 is the no-effect control and ±100 the full control effect; luciferase read-out
NS1 inh – influenza NS1 inhibition | 270,000 tested, 0.4% active | Potency, µM (highest dose often 46.1 µM), for the others: top-dose activity, positive = more growth | S. cerevisiae slowed by influenza A NS1, growth recovery by OD600; active means well fitted rising curve with a large enough effect; inconclusive means small, poorly fitted or top-dose-only effect; inactive means no such curve, though single readings can be large or run the other way; further: nearly all actives have a fitted effect of over 50% in size
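Compounds were scored for reversing the slow growth caused by influenza A NS1 in S. cerevisiae, measured by optical density at 600 nm. Assay medium contained 2% galactose at pH 6.0; NS1-free yeast of the same strain were the positive control.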
Cruzain inh Det – cruzain (T. cruzi) inhibition with detergent; P25779; purified cruzain, Z-FR-AMC fluorescence, 0.01% Triton; Potency, µM, for inactives: max response, negative = inhibition, usual class: inhibitors; 200,000 tested, 0.43% active; AID 1478;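 further: plate controls were neutral wells for no effect and buffer without enzyme for full effect; nearly all actives have a fitted effect of over 40% in size; top concentration of the series not given in the record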
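Sodium acetate buffer (100 mM, pH 5.5) containing 5 mM DTT and 0.01% Triton X-100 hosted 1.5 nM cruzain and test compound for 15 min at room temperature. Cleavage of 2 uM Z-FR-AMC was then tracked by fluorescence.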
SARS PLpro yeast – blocks SARS-CoV papain-like protease in a yeast assay | S. cerevisiae expressing SARS-CoV PLpro, growth rescue; control for the full effect not named in the record | Potency, µM (highest dose often 32.9 µM), for the others: top-dose activity, positive = growth rescue | 330,000 tested, 0.19% active; active means well fitted rising curve with a large enough effect; inconclusive means small, poorly fitted or top-dose-only effect; inactive means no such curve, though single readings can be large or run the other way; further: 0% is about no effect; nearly all actives have a fitted effect of over 55% in size; growth read by luminescence after 48 h
StopGo reporter – FMDV 2A StopGo reporter, luciferase signal; human cells with a luciferase reporter of 2A StopGo recoding; control for the full effect not named in the record; Potency, µM (doses to about 57.9 µM), without a hit: top-dose signal change, negative = less light; 410,000 tested, 1.2% active; active = well fitted falling curve with a large enough effect; inconclusive = small, poorly fitted or top-dose-only effect; inactive = no such curve, though single readings can be large or run the other way; tested in HEK293T cells; further: on the % scale 0 is the no-effect control and ±100 the full control effect; nearly all actives have a fitted effect of over 45% in size; luciferase light after 4 h
Starred values were filed as active, the others as inactive; u = inconclusive; x = no result given; & = joins results of further samples; [ ] = another dose, or the depositor's remark. Unless noted, the call rests on the fitted dose curve; in most records, active means well fitted curve in the direction sought with a large enough effect; inconclusive means small, poorly fitted or top-dose-only effect, or another doubt; inactive means no such curve, though single readings can be large; an effect the other way counts as inactive or inconclusive. Potency means the concentration at half of the fitted maximal effect.

structure | RE007 growth inh | Cruzain inh noDet | Lassa entry inh | Marburg entry inh | NS1 inh | Cruzain inh Det | SARS PLpro yeast | StopGo reporter
COc1ccccc1N1CCN(C(c2ccc(C)cc2)c2nnnn2C(C)C)CC1 (stereo not given) | 23% | u | u | -5% | -33% | -2.1% | -9% | -26%
CC1CCC(NS(=O)(=O)c2ccc3c(c2)CC(=O)N3)CC1 (stereo not given) | 2% | x | x | x | 20% | x | 0% | 15%
CCC(CC)C(=O)Nc1nnc(S(=O)(=O)Nc2ccccc2C)s1 | 69% | x | x | x | 0% | x | 0% | 4%
COc1ccc(-c2noc(CN(C)S(=O)(=O)c3ccc(Cl)cc3)n2)cc1OC | -2% | u | -9% | u | -31% | 0.5% | -7% | u
O=C1CCC(/C=C/c2ccccc2)=NN1Cc1ccc(F)cc1 | -9% | x | -33% | x | x | x | -10% | -24%
Nc1ccccc1C(=O)Nc1cccc(C(=O)O)c1 | -7% | -1% | -29% | -34% | -9% | 4.6% | 2% | x
CC(C)(C)C(=O)Nc1cc2c3c(c1)CCN3C(=O)CC2 | 6% | x | x | x | 1% | x | 12% | -5%
Cc1ccc(S(=O)(=O)Nc2c(C)n(C)n(-c3ccccc3)c2=O)cc1C(=O)NCc1ccco1 | 21% | x | u | x | x | x | x | -12%
Cc1ccc2c(c1)=C/C(=C\c1c(O)[nH]c(=S)[nH]c1=O)C(=O)N=2 | x | 10% | x | x | -4% | -5.4% | 6% | x
CCN(CC)c1ccc(C=N/C(C#N)=C(\N)C#N)cc1 | -26% | -9% | 24% | 30% | -12% | -12% | -2% | 42%[activator]
NC(=O)c1nsc(C(=O)N(Cc2ccco2)C(C(=O)NCC2CCCO2)c2ccc(F)cc2)c1N (stereo not given) | 7% | x | 10%[46.1 µM] | -5%[46.1 µM] | -3% | x | 9% | 2%
CCSc1nnc(-c2cccc(S(=O)(=O)N(CC)CC)c2)n1Cc1ccccc1 | 18% | u | 23µM* | 15µM* | -8% | -0.7% | 6% | u
O=C(NCc1ccccc1)c1nc[nH]c1C(=O)NCc1ccccc1 | 12% | x | x | -16%[46.1 µM] | -7% | x | 0% | -8%
CC(C)(c1ccccc1)c1ccc(OCc2ccc(C(=O)O)o2)cc1 | 4% | x | u | u | x | x | 0% | -18%
COc1ccccc1-c1nc(SCC(=O)NCc2ccco2)c2c(=O)n(C)c(=O)n(C)c2n1 | 4% | x | x | x | 9% | x | -4% | -29%
COc1ccc(C(=O)CSc2nnc(-c3ccccc3)o2)cc1 | -5% | -13% | -11% | -1% | u | -4.5% | 2% | -18%
COc1cccc(NS(=O)(=O)CC23CCC(CC2=O)C3(C)C)c1 (stereo not given) | -6% | -2% | 3% | 6% | -58% | 3.8% | -5% | 46%[activator]
O=C(Nc1cccnc1)c1ccc(Cl)c(Cl)c1 | -14% | x | x | x | -49% | x | -11% | 28%
CC(C)(C)n1nc2c(c1NC(=O)c1ccco1)CS(=O)C2 (stereo not given) | -6% | -1% | 19% | -1% | -9% | 5.1% | -18% | -14%
CCSc1nnc([C@H](Cc2ccccc2)NC(=O)OC(C)(C)C)o1 | -3% | -4% | u | -13% | -6% | -8.2% | -5% | 8%
Nc1nonc1-n1nnc(C(=O)N/N=C/c2ccc(Cl)cc2Cl)c1CN1CCCCC1 | -4% | x | -6%[46.1 µM] | -12%[46.1 µM] | -7% | x | 1% | 7%
CC(Sc1nnc2c(n1)C1CCC2(C)C1(C)C)C(=O)Nc1ccccc1 (stereo not given) | 20% | -11% | u | u | -14% | 1.0% | -4% | -5%
O=C(CNC(=O)c1cccc(Br)c1)N/N=C/c1ccc2c(c1)OCO2 | 3% | x | 13%[46.1 µM] | 22%[46.1 µM] | -24% | x | 2% | 38%[activator]
O=C(O)COc1ccc(-c2nnn(Cc3ccccc3F)n2)cc1 | -6% | -3% | -6% | u | 4% | -0.6% | 2% | -4%

Some entries already given, reduced to SARS PLpro yeast:
Structure	SARS PLpro yeast
O=C(Nc1cccnc1)c1ccc(Cl)c(Cl)c1	-11%
CC(C)(C)n1nc2c(c1NC(=O)c1ccco1)CS(=O)C2 (stereo not given)	-18%
CCSc1nnc([C@H](Cc2ccccc2)NC(=O)OC(C)(C)C)o1	-5%
Nc1nonc1-n1nnc(C(=O)N/N=C/c2ccc(Cl)cc2Cl)c1CN1CCCCC1	1%

The list continues:
structure | RE007 growth inh | Cruzain inh noDet | Lassa entry inh | Marburg entry inh | NS1 inh | Cruzain inh Det | SARS PLpro yeast | StopGo reporter
C/C=N\NC(=O)CNC(=O)CNC(=O)c1ccccc1 | -16% | x | 5% | -29%[46.1 µM] | x | x | 1% | -11%
O=C(Nc1ccccc1)NC1(C(=O)NCc2ccco2)CCCCC1 | -1% | u | -26% | -16% | -1% | 1.8% | 6% | 0%
O=C1NC(=S)S/C1=C1\Sc2ccccc2N1CCCS(=O)(=O)O | 5% | -24% | 8% | 1%&27% | -2% | -12% | 13% | -21%
CCn1nnnc1SCC(=O)N1CCOCC1 | -25% | 0% | 10% | -1%[46.1 µM] | -2% | 6.7% | -5% | u
O=C(NCc1ccccc1)C(=O)NCC(c1ccc2c(c1)OCO2)N1CCOCC1 (stereo not given) | x | -6% | 0%[46.1 µM] | x | x | -0.8% | x | -11%
CCC(=O)N1c2ccccc2CC1C(=O)NCCN1CCN(c2cccc(Cl)c2)CC1 (stereo not given) | x | 26% | -20%[46.1 µM] | x | x | 0.0% | x | -26%
COc1ccc(-c2nc3c(C#N)c[nH]n3c2NC2CCCC2)c(OC)c1 | x | u | -10%[46.1 µM] | 8%[46.1 µM] | x | -5.1% | x | 13%
O=C(CCc1ccccc1)Nc1nc2ccc(S(=O)(=O)N3CCOCC3)cc2s1 | 6% | 4% | -4% | -11% | 8% | 3.1% | 2% | -14%

Whole records, looked up by structure.
`O=C1NC(=S)S/C1=C1\Sc2ccccc2N1CCCS(=O)(=O)O` is listed with RE007 growth inh: 5%; Cruzain inh noDet: -24%; Lassa entry inh: 8%; Marburg entry inh: 1%&27%; NS1 inh: -2%; Cruzain inh Det: -12%; SARS PLpro yeast: 13%; StopGo reporter: -21%
`O=C(CCc1ccccc1)Nc1nc2ccc(S(=O)(=O)N3CCOCC3)cc2s1` is listed with RE007 growth inh: 6%; Cruzain inh noDet: 4%; Lassa entry inh: -4%; Marburg entry inh: -11%; NS1 inh: 8%; Cruzain inh Det: 3.1%; SARS PLpro yeast: 2%; StopGo reporter: -14%

(more compounds)
canonical_smiles,RE007 growth inh,Cruzain inh noDet,Lassa entry inh,Marburg entry inh,NS1 inh,Cruzain inh Det,SARS PLpro yeast,StopGo reporter
COc1ccccc1Nc1nc(-c2sc(NC(=O)C(C)(C)C)nc2C)cs1,-4%,-4%,x,x,9%,-2.3%,-4%,-17%
CC1CCN(CCCNC(=O)c2n[nH]c(=O)c3ccccc23)CC1,9%,-8%,-9%,7%[46.1 µM],-3%,4.2%,-2%,3%
CCNC(=O)Cc1ccc(Br)cc1,-2%,0%,1%,0%,-2%,5.9%,7%,-12%
CCCOc1ccc(N2C(=O)CC(N(CCOC34CC5CC(CC(C5)C3)C4)C(C)=O)C2=O)cc1 (stereo not given),9%,x,u,2%,x,x,-2%,-26%
CCC(C)Nc1cc(C)c(C#N)c2nc3ccccc3n12 (stereo not given),-7%,x,21%[46.1 µM],u,0%,x,1%,-20%
O=C(Nc1cccc(C(=O)N2CCOCC2)c1)c1ncn[nH]1,5%,-4%,10%,21%,2%,-2.3%,6%,x
CC1=C(C(=O)Nc2c(C)cc(C)cc2C)C2(CCN(C(C)C)CC2)OC1=O,x,-7%,23%[46.1 µM],x,x,0.1%,x,-18%
CCOC(=O)c1cccc(NC(=O)CN2C(=O)c3ccccc3Sc3ncccc32)c1,x,u,u,x,x,-8.1%,x,0%
CCCS(=O)(=O)Nc1c(C(=O)OC)[nH]c2ccccc12,-15%,-4%,-1%,1%,-1%,-4.4%,-3%,8%
CCCCN(C)CCNC(=O)CN1C(=O)CSc2ccc(S(=O)(=O)N3CCCCC3)cc21,84%,-7%,8%[46.1 µM],x,-1%,2.8%,-1%,u
Cc1cccc(NC(=S)NC(=O)CCc2ccccc2)c1,u,-1%,u,8%,10%,-12%,14%,16%
COc1cccc(CNC(=O)CCCn2nc(C)c3c(C)n(-c4ccccc4)nc3c2=O)c1,3%,x,u,-20%[46.1 µM],3%,x,10%,-4%
N=c1c2c(-c3ccccc3)c(-c3ccccc3)n(Cc3ccco3)c2ncn1CCN1CCOCC1,-6%,2%,u,10µM*,-9%,0.7%,-1%,-2%
CC(=O)c1c(C)n(S(=O)(=O)c2ccc(Cl)cc2)c2ccc(NS(=O)(=O)c3ccc(Cl)cc3)cc12,x,u,u,u,x,-3.1%,x,-12%
COc1ccnc(Oc2ccc(F)cc2)c1C(=O)N/C=N/OCc1cccc(F)c1,-3%,x,4%[46.1 µM],9%[46.1 µM],x,x,-2%,-12%
COc1c(Br)cc(Br)cc1/C=C1/C(=O)N=C(N)N1C,-2%,x,-10%[46.1 µM],2%[46.1 µM],x,x,3%,-14%
COc1ccccc1/C=C/C(=O)NNC(=O)c1cc(C)oc1C,5%,x,u,u,x,x,1%,3%
CCn1c(COc2ccc(Cl)cc2)nnc1SCC(=O)Nc1ccc2c(c1)OCCO2,-5%,4%,10%,-4%&-4%,1%,0.1%,2%,-21%
Cc1[nH]c2ccc(Br)cc2c(=O)c1CN1CCOCC1,0%,-14%,11%,-17%[46.1 µM],7%,1.1%,-3%,7%
